Screens (PubChem)
PABP FP inh – blocks human PABP binding to poly(A) RNA; P11940; fluorescence polarization; inhibition, % at 35 µM; hit rate 1% among 290,000;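 active = 50% or more with normal probe brightness, or confirmed in later tests; inconclusive = above 50% with abnormal brightness, or retests that disagree; inactive = below 50% or failed in later tests; about a fifth of its hits are not listed in these tables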;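 also: calls also rest on retests at 20 µM and on dose response follow-up; controls were probe without protein and protein plus probe with vehicle; some compounds called inactive have numbers as strong as hits; many hits fall short of the cut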
Target sequence (P11940 whole entry, looked up): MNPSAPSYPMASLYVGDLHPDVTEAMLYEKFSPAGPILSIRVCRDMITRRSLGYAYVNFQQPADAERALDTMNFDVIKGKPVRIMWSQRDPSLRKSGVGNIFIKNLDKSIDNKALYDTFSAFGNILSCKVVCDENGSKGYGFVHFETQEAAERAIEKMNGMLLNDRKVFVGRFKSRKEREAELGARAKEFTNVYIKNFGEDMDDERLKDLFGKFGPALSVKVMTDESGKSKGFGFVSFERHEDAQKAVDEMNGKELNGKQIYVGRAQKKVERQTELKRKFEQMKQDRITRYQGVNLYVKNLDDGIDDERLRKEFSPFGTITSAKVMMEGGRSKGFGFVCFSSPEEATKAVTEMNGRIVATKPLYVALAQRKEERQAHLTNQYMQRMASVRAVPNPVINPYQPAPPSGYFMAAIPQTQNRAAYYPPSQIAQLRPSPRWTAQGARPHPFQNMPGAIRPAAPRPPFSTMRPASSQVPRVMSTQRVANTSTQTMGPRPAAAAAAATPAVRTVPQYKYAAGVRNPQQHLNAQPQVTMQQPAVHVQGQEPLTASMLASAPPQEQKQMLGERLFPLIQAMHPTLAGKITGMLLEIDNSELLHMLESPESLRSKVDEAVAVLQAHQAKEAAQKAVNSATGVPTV
MT1-MMP act inh – MT1-MMP (human) activation inhibition; AID 651647; HT1080 RFP-PRO-GFP cells, GFP/RFP ratio fluorescence, overnight; percent of plate control window, DMSO zero; hit rate 0.061% among 360,000; GFP/RFP ratio change, % at 20 µM;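 active = GFP/RFP ratio change of at least 30% with cell ATP level not reduced by more than half and red fluorescence within 50% of control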; also: strong numbers were not always called active
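Test system: HT1080 RFP-PRO-GFP cells; Benchmarks: DMSO and RFP-L50D-GFP cell wells; Timing: cells overnight before dosing, compound overnight, 37 °C, 5% CO2; Compound: one 20 µM compound dose with 1% DMSO; Read-out: GFP/RFP fluorescence ratio.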
eIF4H FP inh – inhibitors of RNA binding by human eIF4H | Q15056 | eIF4H fluorescence polarization binding assay | inhibition, % at 35 µM | hit rate 0.94% among 290,000;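 active = 50% or more with normal probe brightness, or confirmed in later tests; inconclusive = above 50% with abnormal brightness, or retests that disagree; inactive = below 50% or failed in later tests; about a fifth of its hits are not listed in these tables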;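 also: calls also rest on retests at 20 µM and on dose response follow-up; 0% = protein and probe with vehicle and 100% = probe without protein; strong numbers were not always called active; many hits fall short of the cut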
CSC inhib – cancer stem cell inhibition; hit rate 1.1% among 300,000; inhibition, % at 7.5 µM; cancer stem cell-like cells viability, luminescence;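 active = mean at 75% or more and at least half the replicates too; inconclusive = mean and replicates disagree; tested in HMLE shEcad cells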;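 also: 0% = median of negative and 100% = median of positive control wells; the first replicate is given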
Env fusion inh – blocks HIV Env-driven cell-cell fusion. hit rate 1.1% among 360,000. inhibition, % at 12.3 µM. AID 651610. HeLa-JRFL Env/CEM21 cell fusion, luciferase;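 active = mean replicate inhibition score of at least 50 and every replicate individually at or above 50; inconclusive = only one of the two criteria met; inactive = mean below 50 and not all replicates reaching 50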;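 also: 0% = plate neutral controls and 100% = maraviroc near 300 nM; one replicate is shown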
Rce1 inh – blocks yeast Ras-converting enzyme. hit rate 0.27% among 290,000. yeast membranes, quenched prenylated peptide cleavage fluorescence. calls only. Q03530;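 active = fall in fluorescence gain of 50% or more versus controls, with final raw signal at or below 3038400; inconclusive = same 50% fall but final raw signal above 3038400; inactive = fall in fluorescence gain under 50%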;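 also: plate controls were neutral control wells for no effect and wells lacking membranes for full effect; tested at 10 µM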
Target sequence (Q03530 whole entry, looked up): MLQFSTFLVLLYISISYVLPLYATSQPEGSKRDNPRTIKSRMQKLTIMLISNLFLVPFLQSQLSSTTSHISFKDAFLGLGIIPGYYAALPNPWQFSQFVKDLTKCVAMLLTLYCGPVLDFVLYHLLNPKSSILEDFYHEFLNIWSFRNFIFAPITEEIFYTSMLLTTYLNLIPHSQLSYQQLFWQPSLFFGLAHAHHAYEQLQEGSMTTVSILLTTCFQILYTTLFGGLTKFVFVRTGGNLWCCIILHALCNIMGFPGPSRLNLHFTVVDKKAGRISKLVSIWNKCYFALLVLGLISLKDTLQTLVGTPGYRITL
Yeast UUG start – modulators of start codon recognition fidelity in yeast. hit rate 0.13% among 350,000. activity score, % at 18.7 µM. S. cerevisiae UUG-firefly luciferase reporter, luminescence/redox ratio;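 active = replicate mean at a twofold rise or more, about +100% in these data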;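 also: firefly luciferase made from a UUG start codon reports start codon fidelity; reporter light over untreated wells divided by growth signal over untreated wells; some hits fall short of that in this replicate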
MT1-MMP act inh RFP – also measured in MT1-MMP act inh; calls as there; RFP signal change, %; measured here: RFP expression control read;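 0 = vehicle wells; hits needed this value within 50% of zero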
An asterisk follows results filed as active; i = inactive; ? = inconclusive; · = no result given.

SMILES	PABP FP inh	MT1-MMP act inh	MT1-MMP act inh RFP	eIF4H FP inh	CSC inhib	Env fusion inh	Rce1 inh	Yeast UUG start
COc1ccc(C(=O)NC(C)C2CC3CCC2C3)cc1 (stereo unspecified)	-6.6	1.7	-1.2	-9.3	-12.2	12.9	i	-25.4
C/C(=N\Nc1ccc(C)c(Cl)c1)c1ccncc1	-5.6	-1.8	-3.7	6.5	-6.2	-5.6	i	-8.6
O=C(N/N=C/c1ccncc1)c1cccc(NC(=O)c2ccccc2Cl)c1	-10.7	-7.4	0.8	1.6	3.1	4.4	i	·
COc1ccc(Nc2nc(C)cc(-c3cc(-c4ccccc4)on3)n2)cc1	·	3.7	-0.1	·	-5.0	-23.5	i	-24.4
Nc1nnc(SCC(=O)OCC(=O)NC23CC4CC(CC(C4)C2)C3)s1	24.6	-1.7	3.2	6.4	-3.4	1.9	i	·
CCCSc1nc(C)cc(=O)[nH]1	-8.4	3.8	5.9	2.6	6.5	-67.7	i	-4.4
O=C(CSc1ncn[nH]1)N1N=C2/C(=C/c3ccco3)CCCC2C1c1ccco1 (stereo unspecified)	11.1	-2.3	-2.1	-0.8	9.7	24.2	i	-9.6
COc1cc(/C=C2\SC(=S)N(NS(=O)(=O)c3ccccc3)C2=O)cc(OC)c1OC	13.5	1.3	1.5	-14.3	23.8	-15.4	i	-25.4
CCN(CC(=O)NCc1cccs1)C(=O)CCc1c[nH]c2ccccc12	-10.5	-2.9	-7.0	-0.2	-4.4	12.1	i	-7.8
COc1cc2c(C(=O)NCc3ccccn3)cn(CC(C)C)c(=O)c2cc1OC	-0.7	2.5	4.3	-11.6	5.8	31.1	i	-4.5
Cc1oc(-c2ccccc2Cl)nc1CN(C)C(C)c1ccon1 (stereo unspecified)	13.3	3.9	2.5	7.9	-4.3	-11.3	i	·
O=C(Nc1cccnc1)c1ccc(N2CCCC2)c([N+](=O)[O-])c1	-10.1	3.7	1.2	0.3	-4.7	-0.4	i	2.0
Cc1ccc(N2C(=O)CC(Sc3ccccc3C(=O)O)C2=O)c([N+](=O)[O-])c1 (stereo unspecified)	15.4	-0.5	0.5	2.0	-12.2	-7.0	i	·
CCc1ccc(Nc2ccc(C(N)=O)cc2[N+](=O)[O-])cc1	3.9	5.3	-6.4	-2.4	18.7	6.5	i	·
CCOc1ccc(S(=O)(=O)NCc2ccccn2)cc1NC(=O)c1ccccc1	·	6.2	-6.9	·	51.2	-9.2	i	·
O=C1c2ccccc2NC(c2ccc(O)cc2)N1/N=C/c1ccc(O)cc1 (stereo unspecified)	-3.6	3.6	-0.3	-1.2	·	14.1	i	·
Cn1c(COc2ccc(C(=O)O)cc2)nc2ccccc21	9.6	3.8	4.6	-5.8	-17.9	-497.5	i	-9.9
Cc1cc(OCC(=O)N(C)C)c2c(-c3ccccc3)cc(=O)oc2c1	-0.9	-3.8	2.4	-3.8	2.3	26.7	i	-2.4
CN1CCN(S(=O)(=O)c2ccc(Cl)s2)CC1	7.7	0.4	5.2	9.2	-1.9	-3.6	i	-2.1
CC(=O)Nc1ccc(S(=O)(=O)CCC#N)cc1	-0.4	0.4	3.2	1.9	2.3	1.9	i	-17.0
CCN(CC(=O)Nc1c(F)cccc1F)C(=O)c1cc(S(=O)(=O)N(CC)CC)ccc1N1CCCCC1	-11.2	-7.2	-5.0	2.0	-12.1	-18.3	i	-9.5
Cc1cccc(-c2nc(C#N)c(N3CCCCC3)o2)c1	-3.2	2.4	-1.1	-4.2	-2.3	-21.9	i	-15.1
CCOc1cc2[nH]c(=S)n(CCC(=O)N3CCc4ccccc4C3)c(=O)c2cc1OCC	2.3	-1.6	2.2	0.5	-5.1	-126.0	i	-15.3
O=C(NCCCN1CCOCC1)c1cc(-c2cccs2)on1	-1.7	8.3	13.4	-0.4	2.7	·	i	-17.2
CCn1c(SCC(=O)OC)nc2cc(S(=O)(=O)N3CCOCC3)ccc21	·	1.3	0.9	·	-1.1	·	i	-15.9
Cc1ccc(Cn2ccc(NC(=O)c3cc(-c4ccco4)on3)n2)cc1	-4.1	-8.6	0.5	1.4	·	-16.6	i	-8.1
Cc1ccc2nc(NC(=O)C3CCN(S(=O)(=O)c4cccnc4)CC3)sc2c1	-4.6	0.7	-21.2	0.2	0.3	16.6	i	-32.6
CCc1ccc(NC(=O)N2CCN(c3ccccc3)CC2)cc1	-5.6	-4.7	-1.9	-2.2	-4.6	-2.7	i	·
Cc1ccc(O)c(NC(=O)c2cccc(NC(=O)c3ccco3)c2)c1	9.0	2.6	-0.3	-0.5	3.7	·	i	-9.2
Cn1c(=O)c2[nH]c(SCCN)nc2n(C)c1=S	·	0.2	0.4	·	·	2.9	·	1.2
Cc1cc(S(=O)(=O)N(Cc2ccc(C(C)C)cc2)CC2CCCO2)ccc1-n1cnnn1 (stereo unspecified)	-5.3	-2.9	-21.8	-4.3	0.2	·	i	13.8
COC(=O)C1CCCCN1C(=O)c1ccc(OC2CCN(C(C)=O)CC2)c(OC)c1 (stereo unspecified)	-0.2	3.1	6.3	-7.5	-6.3	14.9	i	-16.9
COc1ccccc1C(=O)NCC(=O)OC(C)C(=O)N1CCOCC1 (stereo unspecified)	·	1.5	2.5	·	-1.4	4.5	i	·
COC(=O)c1ccc(COc2ccc(C#N)cc2)o1	-2.8	-1.9	-0.1	-1.8	-13.4	9.5	i	0.1
NC(=O)c1c(NC(=O)C(=O)NCCCN2CCOCC2)sc2c1CCCC2	-2.2	0.8	1.1	-11.5	-7.8	6.1	i	·
COC(=O)[C@@]1(Cc2ccccc2)[C@H]2C(=O)N(Cc3ccccc3)C(=O)[C@H]2[C@H]2CN(C)C(=NCc3ccccc3)N21	·	-0.7	-1.1	·	·	-38.2	·	-5.0
Cc1cc(OC(C)C(=O)NCCCN2CCCC2=O)c2c(C)c(C)c(=O)oc2c1 (stereo unspecified)	2.1	4.5	4.1	-18.2	-6.8	-7.3	i	7.8
CC(=O)c1ccc2ccccc2c1OC(=O)c1ccncc1	·	-1.0	1.6	·	·	35.8	·	-7.4
COCCCn1c(C)cc(C(=O)CN2c3cccc4cccc(c34)S2(=O)=O)c1C	·	-1.9	0.7	·	2.8	·	·	12.4
COc1ccc(-c2cc(C(=O)N/N=C(\C)c3cccnc3)c3ccccc3n2)c(OC)c1	2.8	1.6	1.8	-3.6	0.6	-22.2	i	-23.2
CC(C)c1nnc2c(N(C)S(=O)(=O)c3ccccc3)nc3ccccc3n12	-2.0	-0.3	1.3	-13.4	-8.0	-0.6	i	3.6
CSc1nc(NCc2ccccc2)c2c3c(sc2n1)CN(C)CC3	-10.4	-10.9	-6.5	3.2	-5.7	-68.2	i	0.5
CC1CCCN(CC(O)COC(c2ccccc2)c2ccccc2)C1 (stereo unspecified)	29.4	1.8	2.2	8.6	3.8	-9.0	i	·
Cc1ccc(C(C)(C)C)cc1S(=O)(=O)N1CC(=O)Nc2ccccc21	8.6	-5.8	-10.0	1.0	13.9	8.4	i	-3.2
O=C1c2cccc3cc(Br)cc(c23)C(=O)N1Nc1ccccc1	-0.9	-16.3	-9.8	-7.0	6.6	?	i	-15.4
O=C(C1CCN(S(=O)(=O)c2cnc[nH]2)CC1)N(CCc1ccccc1)Cc1ccccc1	-8.9	-6.9	2.9	6.5	3.0	2.2	i	-10.1
CSCCC(NC(=O)c1ccco1)C(=O)OCC(=O)N(Cc1ccccc1)C(C)(C)C (stereo unspecified)	·	0.0	0.6	·	3.1	5.3	i	-6.4
C#CC(C)(CC)NC(=O)c1cc(OC)c(OC)c(OC)c1 (stereo unspecified)	3.6	4.1	2.7	12.1	-13.4	·	i	-4.5
COc1ccccc1C(=O)Nc1nc(-c2ccc(S(=O)(=O)N3CCOCC3)cc2)cs1	-5.8	-10.0	-22.8	-10.9	41.0	96.1*	i	-9.9
CCCCOC(=O)Cn1c(=N)n(CCC)c2ccccc21	2.4	0.5	2.3	0.1	-8.7	·	i	-1.2
COc1ccc(CNC(=O)CCS(=O)(=O)c2ccc3nc(C)sc3c2)cc1	·	-1.9	1.4	·	·	-2.1	·	-2.7
O=C(COC(=O)c1n[nH]c2ccccc12)NC(=O)NCc1ccco1	11.1	0.8	-2.0	-0.9	-21.3	·	i	2.7
CC(C)CC(=O)Nc1ccc(C(=O)Cn2c(=O)oc3ccccc32)cc1	-4.8	-1.3	0.0	11.1	-3.5	11.3	i	·
Cc1cccc(NS(=O)(=O)c2cccs2)n1	6.6	6.1	0.6	-5.3	-5.4	·	i	-0.9
COCCOc1cc(Nc2nnc(C(F)(F)F)s2)c(Cl)cc1Cl	-3.8	0.9	-8.2	-10.9	21.1	·	i	-23.3
Cc1ccc(C)c(C(=O)COC(=O)c2cc([N+](=O)[O-])ccc2NCCO)c1	-0.8	0.8	-6.0	-6.3	9.9	·	i	-14.2
CCN(CC(=O)Nc1c(F)cccc1F)C(=O)CSc1ccc(F)cc1	·	0.2	3.1	·	-7.1	·	i	-15.4
COc1ccc(NC(=O)c2csc(Cc3ccc(Cl)cc3)n2)cc1	-1.5	-0.1	-1.7	0.7	-10.0	-7.7	i	·
C/C(=N\Nc1ccc(Cl)c(C(=O)O)c1)c1ccc[nH]1	36.5	1.3	5.2	35.9	-26.6	5.0	i	·
COc1ccc(C(CNC(=O)c2cc(S(=O)(=O)N3CCN(c4ccccc4)CC3)ccc2Cl)N(C)C)cc1 (stereo unspecified)	·	-1.7	-14.6	·	-10.4	15.7	·	1.7

Exported with values under each structure: part of the list above.
Every second line gives: PABP FP inh | MT1-MMP act inh | MT1-MMP act inh RFP | eIF4H FP inh | CSC inhib | Env fusion inh | Rce1 inh | Yeast UUG start
CC1CCCN(CC(O)COC(c2ccccc2)c2ccccc2)C1 (stereo unspecified)
    29.4 | 1.8 | 2.2 | 8.6 | 3.8 | -9.0 | i | ·
CC(C)CC(=O)Nc1ccc(C(=O)Cn2c(=O)oc3ccccc32)cc1
    -4.8 | -1.3 | 0.0 | 11.1 | -3.5 | 11.3 | i | ·
CCCCOC(=O)Cn1c(=N)n(CCC)c2ccccc21
    2.4 | 0.5 | 2.3 | 0.1 | -8.7 | · | i | -1.2
COc1ccc(NC(=O)c2csc(Cc3ccc(Cl)cc3)n2)cc1
    -1.5 | -0.1 | -1.7 | 0.7 | -10.0 | -7.7 | i | ·

Following part.
SMILES	PABP FP inh	MT1-MMP act inh	MT1-MMP act inh RFP	eIF4H FP inh	CSC inhib	Env fusion inh	Rce1 inh	Yeast UUG start
Cc1nc(-c2ccccc2)sc1C1(C)CC(c2ccccc2F)=NO1 (stereo unspecified)	·	-0.5	0.8	·	-12.1	-18.4	i	-7.7
COc1ccc(CNCCCO)cc1OC	-3.8	-5.6	-4.1	2.4	-5.3	-9.0	i	-9.9
O=c1c(-c2cnn(-c3ccccc3)c2)coc2cc(O)ccc12	0.6	3.7	-2.1	-5.6	15.8	·	i	-34.0
CC1=NN(C(=O)c2ccccc2Cl)C(O)(c2cccnc2)C1 (stereo unspecified)	3.1	0.1	4.1	-5.2	-15.6	10.1	i	-4.6
Nc1nc(CSc2nc3ccccc3[nH]2)nc(N2CCOCC2)n1	5.3	1.0	3.4	0.8	-9.7	·	i	-18.7
C[C@@H](NC(=O)c1nc[nH]c1C(=O)N[C@H](C)c1ccccc1)c1ccccc1	·	1.4	-2.8	·	9.5	-41.1	·	-11.6
COc1ccccc1C(O)(c1ccccc1)C(CN1CCOCC1)c1ccccc1 (stereo unspecified)	-7.1	-4.5	-0.3	-5.8	-2.3	32.9	i	-14.5
CCOc1ccc(C(=O)NNC2CC(=O)N(CCc3ccccc3)C2=O)cc1OC (stereo unspecified)	-13.9	-1.4	-3.3	-3.1	-4.5	5.3	i	-28.5
CCn1c(C)csc1=NC(=O)c1ccccc1O	-12.3	3.7	-4.8	-5.0	-2.6	·	i	-11.1
